Assay outcomes from PubChem BioAssay.
Sa helicase inh: S. aureus DNA helicase inhibition. actives 0.05% (n = 120,000). inhibition, %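 (tested at about 80 µM)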. AID 485395. purified S. aureus helicase, fluorescence unwinding assay; about half of the hits fall short of the stated cut;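 active = both duplicates at 50% or more, or one of them with a favoured structure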;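 note: 0% = mean of negative control wells and 100% = mean of positive control wells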
MgrA-DNA mod: S. aureus MgrA-DNA binding modulation | fluorescence polarization | inhibition, %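 (about 10 µg/mL by stock and volumes)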 | actives 0.13% (n = 84,000) | AID 602314;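 active = above 50% in either of two replicates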;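 note: 0% = protein plus DNA without compound and 100% = DNA alone without protein; higher means less MgrA bound to DNA so lower polarization; one replicate is shown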
The depositor's hits bear a star; . = not tested or not shown. The list is partial; count on the stated rates, not on these rows.

The line under a structure holds: Sa helicase inh, MgrA-DNA mod
C=CCNC(=S)NN=C1CCCCCC1
    -12.0, .
CCCCn1ccnc1C(=O)c1cccc(S(=O)(=O)N2c3ccccc3CC2C)c1 (stereo not drawn)
    -20.0, .
Cc1cc(=S)nc(-c2ccccn2)[nH]1
    ., 4.3
Cc1sc2ncnc(Sc3ccccc3)c2c1C
    -10.0, .
O=C(c1cnn(-c2ccccc2)n1)N1CCCC1c1nc2ccccc2s1 (stereo not drawn)
    3.0, .
O=C1C2SCCN2C(=S)N1c1cccc(C(F)(F)F)c1 (stereo not drawn)
    ., -1.6
COc1ccc(Cl)cc1NC(=O)CC(C)(C)CC(=O)O
    ., 0.0
COc1ccc(-c2noc(CN(C)C(C)=O)n2)cc1OC
    15.0, -0.5
Cc1ccc(S(=O)(=O)Nc2ccccc2N=Cc2ccc[nH]2)cc1
    -5.0, 0.4
Cc1cc(C)c(C#N)c(SCC(=O)C(C)(C)C)n1
    7.0, 2.8
COc1cccc(NC2=CC(=O)CC(C)(C)C2)c1
    -6.0, -0.2
Cc1ccc(-c2nn3cnnc3c3ccccc23)cc1C
    -13.0, .
Cc1cc(C)n(C(=O)CNC(=O)c2ccc(Br)cc2)n1
    16.0, .
CC(C)CN(CC(C)C)S(=O)(=O)c1ccc(CCN2C(=O)c3cccnc3C2=O)cc1
    -7.0, -0.6
c1ccc(COc2ccc(CCC3OCCO3)cc2)cc1
    ., 1.1

(cont.)
The line under a structure holds: Sa helicase inh, MgrA-DNA mod
O=S(=O)(NCC1CCCCC1)c1ccc2c(c1)OCCO2
    11.0, .
COCCOC(=O)C1=C(C)NC2=C(C(=O)CC(c3ccccc3)C2)C1c1cc2c(cc1[N+](=O)[O-])OCO2 (stereo not drawn)
    ., 4.6
O=C(Nc1cccc(C(F)(F)F)c1)c1ccc2ccccc2c1
    7.0, 4.5
CCCNC(=O)c1ccccc1OC(C)=O
    -2.0, -1.0
O=C(Cn1cnc2ccccc2c1=O)c1c[nH]c2ccccc12
    10.0, .
Nc1c(C(=O)O)sc(C(F)(F)F)c1-c1ccccc1
    -3.0, .
O=C1C=CC(=O)c2c1ccc1c2ccc2ccccc21
    ., 17.6
CN1C(=O)CCSc2ccccc21
    -1.0, .
O=C(Nc1cccc(C(F)(F)F)c1)N1CCOC12CCCCC2
    ., -0.8
CC1=C(C#N)C(c2ccccc2)C(C#N)=C(C)N1
    ., -0.3
CCNC(=O)c1cc2c(C)nn(-c3ccc(Cl)cc3)c2s1
    7.0, .
CCN(CC)CCNc1nc2ccccc2n1C
    -4.0, -2.1
NC(N)=Nc1nc(CSCC/C(N)=N/S(N)(=O)=O)cs1
    ., 3.8
O=C(Cn1cnc2c(nnn2Cc2ccccc2F)c1=O)Nc1ccc2c(c1)OCCO2
    -14.0, .
NNC(=O)CCCCn1c(=S)[nH]c2ccsc2c1=O
    3.0, .

Record cards (already shown). Order of values: Sa helicase inh, MgrA-DNA mod
O=S(=O)(NCC1CCCCC1)c1ccc2c(c1)OCCO2 is listed with 11.0, .
O=C1C=CC(=O)c2c1ccc1c2ccc2ccccc21 is listed with ., 17.6
NNC(=O)CCCCn1c(=S)[nH]c2ccsc2c1=O is listed with 3.0, .
CN1C(=O)CCSc2ccccc21 is listed with -1.0, .

Following part.
The line under a structure holds: Sa helicase inh, MgrA-DNA mod
COc1ccccc1-c1nnc(NC(=O)CCSc2ccccc2)o1
    18.0, .
Cc1cc(CNCC(c2ccco2)N2CCCCC2)c(C)n1-c1ccnn1C(C)C (stereo not drawn)
    6.0, .
CCN(CC)S(=O)(=O)c1cc(C(=O)OC(C)C(=O)NC2CC2)ccc1C (stereo not drawn)
    11.0, .
COc1ccccc1N1CCN(C2CCCC(C)C2)CC1 (stereo not drawn)
    9.0, -4.8
Cc1ccc(C(=O)N(CC(C)C)C2CCS(=O)(=O)C2)cc1C (stereo not drawn)
    -10.0, .
COc1ccc(-n2nnnc2SCCCC(=O)c2ccccc2)cc1
    -5.0, .
O=C(/C=C/c1cccs1)Oc1ccc2c(c1)OCO2
    2.0, .
CCC(NCc1cccnc1)c1ccc(OC)c(OC)c1 (stereo not drawn)
    6.0, .
O=C(NCC1CC1)NC(=O)c1c(Cl)cccc1Cl
    10.0, .
O=C(CS(=O)(=O)c1ccccc1)Nc1cccc(C(F)(F)F)c1
    -15.0, 1.5
O=C(C1Cc2ccccc2CN1S(=O)(=O)c1ccc(F)cc1)N1CCOCC1 (stereo not drawn)
    13.0, -1.6
Cc1ccc(S(=O)(=O)N2CCOCC2)cc1C(=O)NCC1CCCCC1
    -9.0, .
O=C(Cc1c[nH]c2ccccc12)NCC(c1ccco1)N1CCCCC1 (stereo not drawn)
    -1.0, .
O=C(Oc1ccc(OC(=O)c2ccccc2)cc1)c1ccccc1
    -1.0, 3.6
O=C(Nc1ccc(N2CCOCC2)cc1Cl)C1CCN(C(=O)OCc2ccccc2)CC1
    ., 1.2

(further entries)
The line under a structure holds: Sa helicase inh, MgrA-DNA mod
O=S(=O)(Nc1cc(C(F)(F)F)ccc1N1CCCC1)c1ccc2c(c1)OCCCO2
    -3.0, .
C=CCn1c(=S)n(CC=C)c2ccccc21
    4.0, 4.4
COC(=O)c1cc(-c2ccccc2)on1
    5.0, .
NS(=O)(=O)c1ccc(NC(=O)CN2C(=O)S/C(=C\C(=O)Nc3ccc(F)cc3)C2=O)cc1
    10.0, .
Nc1ccccc1C(=O)Nc1cc(C(=O)O)cc(C(=O)O)c1
    -7.0, -1.2
O=C(OC(C(=O)NCc1cccs1)c1ccccc1Cl)c1ccco1 (stereo not drawn)
    -5.0, 0.6
Cc1ccc(COc2ccc(/C=C3/C(=N)N4C=CSC4=NC3=O)cc2Br)cc1
    11.0, 1.1
O=c1cc(-c2ccc(F)cc2)oc2ccccc12
    ., -3.8
CCOC(=O)Cc1csc(NS(=O)(=O)c2ccc(F)cc2F)n1
    ., -0.8
CCOC(=O)C1=C(C)NC(C)=C(C(=O)OCC)C1C(=O)OCC(=O)c1cc(C)n(Cc2cccs2)c1C
    -8.0, .
O=C(COc1ccccc1F)OCCN1CCCC1
    31.0, -2.5
CCOC(=O)c1ccc(NC(=S)N2CCOCC2)cc1
    ., 1.9
CC1CN(C(=O)Cn2cc(SCC(N)=O)c3ccccc32)CC(C)O1 (stereo not drawn)
    -29.0, .
Cc1ccc(C2CC(=O)Nc3sc(C(N)=O)c(N)c32)cc1 (stereo not drawn)
    19.0, .
CSc1ccc2nnc(CCNC(=O)c3ccccc3)n2n1
    10.0, .

(continued)
The line under a structure holds: Sa helicase inh, MgrA-DNA mod
CN1c2ccccc2C(=O)/C(=C\Nc2ccc(F)cc2F)S1(=O)=O
    ., 2.8
COc1ccc(CNC(=O)C2=Cc3sc(C)c(C)c3CS2)cc1
    5.0, -0.6
O=C(CN1CCN(Cc2ccccc2)CC1)NCCN1C(=O)S/C(=C\c2ccccc2Cl)C1=O
    12.0, .
NC(=O)c1ccccc1N=c1cc(-c2ccccc2)oc2ccc(Cl)cc12
    -5.0, 2.0
CCc1ccc(NC(=O)Cn2nc(C(F)(F)F)c3c2CCC3)cc1
    -26.0, .
O=C(c1nc(-c2ccc(Cl)cc2)n2c1CCCCC2)N1CCCC1
    -22.0, .
CCOC(=O)c1c(C)c(C(=O)NCc2ccco2)c(C)n1C
    -2.0, .
COc1ccccc1CNC(=O)CN(c1ccccc1)C(C)C
    -3.0, .
CCC(=O)Nc1cc(C(=O)O)ccc1C
    5.0, -1.6
Ic1c(-c2ccccc2)noc1-c1ccccc1
    3.0, 1.2
CSc1nn(-c2ccccc2)cc1C(=O)Sc1cccs1
    ., 4.3
CC1(C)CC2(CCO1)Cc1ccccc1C2=O (stereo not drawn)
    30.0, .
O=C(Nc1cc(Cl)cc(Cl)c1)N1CCN(C(c2ccccc2)c2ccccc2)CC1
    ., 3.9
N#Cc1cccc(Cn2nnc(-c3ccccc3)n2)c1
    6.0, -0.1
CCCn1c(=S)[nH]c2cnn(C)c2c1=O
    -8.0, .

(more compounds)
The line under a structure holds: Sa helicase inh, MgrA-DNA mod
CCCN1CCN(C(=O)c2oc(=O)c3ccccc3c2-c2ccccc2)CC1
    9.0, .
COc1ccc(C(=O)NCc2ccc3c(c2)CCO3)cc1
    ., -3.0
CC1CCN(C(=O)C2c3ccccc3Oc3ccccc32)CC1
    7.0, 4.0
O=C(Cc1ccccc1)Oc1ccc(N=Cc2cccs2)cc1
    6.0, -1.2
COC(=O)c1ccc(Oc2nc(N3CCCCC3)nc(N3CCCCC3)n2)cc1
    20.0, .
CC(Sc1ccccc1)C(=O)Nc1ccc(CC#N)cc1 (stereo not drawn)
    12.0, -2.6
CC(C)n1c(C(F)(F)F)nc2ccccc21
    -12.0, .
O=C(O)c1ccc(Cn2nc(N3CCCCC3)ccc2=O)o1
    -14.0, -3.0
COc1cccc2cc(C(C)O)oc12 (stereo not drawn)
    ., -1.2
CCC(C)(C)NC(=O)c1cccc(NC(=O)C(C)C)c1
    -9.0, -1.1
CCOC(=O)C1CC2CN(C(=O)c3ccccc3)CC(C1)C2=O (stereo not drawn)
    -2.0, .
O=c1oc(CCCCc2nc3sc4c(c3c(=O)o2)CCCC4)nc2sc3c(c12)CCCC3
    ., -10.8
CCCCCn1c(=O)c2ccccc2n2c(Cn3cc(S(=O)(=O)N4CCCC4)ccc3=O)nnc12
    19.0, .
O=C(CCN1C(=O)c2cccnc2Sc2ccccc21)NCc1ccc2c(c1)OCO2
    5.0, .
Cc1ccc(OCCOc2ccc(Cl)cc2C=C2C(=O)NC(=S)NC2=O)cc1
    ., 28.0

Additional results follow.
The line under a structure holds: Sa helicase inh, MgrA-DNA mod
Cc1ccc(C(=O)CCN2CCOCC2)c(C)c1
    ., -1.8
CC(C1CC2CCC1C2)n1c(SCC(=O)c2ccc[nH]2)nnc1-c1ccco1 (stereo not drawn)
    -20.0, .
Cc1ccnc(N2C(=O)c3ccccc3C2Nc2ccc(Br)c(C)c2)c1 (stereo not drawn)
    5.0, -1.5
Cc1cc(=O)oc2cc(OC(=O)C(C)C)ccc12
    -21.0, .
O=c1c2ccccc2c2n[nH]c(O)c3ccc(=NC4CCCCC4)c1c32
    13.0, 3.6
CCOC(=O)N/N=C/c1cn(-c2ccccc2)nc1-c1cc2ccccc2o1
    11.0, .
Cn1nnc(-c2ccc(OCc3ccccc3F)cc2)n1
    3.0, -1.3
CCCCCC1CC(O)C=C(C)C1C(=O)OC (stereo not drawn)
    8.0, -0.1
CC(/C=C(\C#N)c1ccc([N+](=O)[O-])cc1)Cc1ccc(C(C)(C)C)cc1 (stereo not drawn)
    ., -1.4
CCN1CCC(=NO)CC1
    -2.0, .
Cc1[nH]c2ccc(-c3nnc(SCC(=O)N4CCCC4)o3)cc2c1C
    14.0, 0.3
O=C(Cc1cn2ccsc2n1)Nc1ccc(Cl)cc1
    -19.0, .
CCN1CCCC1CNC(=O)C1(O)c2cc(Br)ccc2NC(=O)N1c1ccc(Cl)cc1 (stereo not drawn)
    36.0, .
O=c1c2ccccc2nnn1CSc1nnc(-c2ccco2)o1
    -18.0, .
Cc1cc(C)cc(NC(=O)CSCc2cnn(-c3ccccc3)c2-n2cccc2)c1
    8.0, -2.2

Further compounds
The line under a structure holds: Sa helicase inh, MgrA-DNA mod
C=C(C)CS(=O)(=O)c1ccccc1
    -15.0, 1.4
CN(Cc1nc(-c2ccccc2)cs1)C(=O)NC1(c2ccccc2)CC1
    19.0, 0.0
Cc1cc(C)cc(N2C(=O)/C(=C\c3ccc(N4CCCCC4)cc3)C(=O)NC2=S)c1
    15.0, 21.3
CCS(=O)(=O)c1ccc(OC)c(-n2c(O)c[nH]c2=O)c1
    10.0, -3.4
O=C1CN(S(=O)(=O)c2ccc(F)cc2)CCN1
    9.0, .
CCOC(=O)c1c(C)n(-c2ccc(OC)cc2)c2ccc(OC(=O)C#Cc3ccccc3)cc12
    ., 0.7
CCOC(=O)c1c(C)oc2c1c1c(c3ccccc32)OCN(CCO)C1
    11.0, .
C=CCn1c(Cc2cccs2)nnc1SCC(=O)Nc1ccc(C)c(C)c1
    10.0, -0.8
c1nc(N2CCCC2)c2c3c(sc2n1)CCC3
    10.0, -1.1
CCOC(=O)C(C)Sc1ncnc2c1oc1ccccc12 (stereo not drawn)
    6.0, 0.7
COCc1ccc2oc(C(=O)O)cc2c1
    3.0, 0.3
O=S(=O)(c1ccccc1F)N1CC=C(c2ccccc2)CC1
    ., 0.2
O=C1NC2(CCCCC2)N(C(=O)c2cccs2)C2=C1CCCC2
    18.0, .
CCOC(=O)CNC(=O)c1cc(-c2ccc(Cl)c(Cl)c2)nc2ccccc12
    ., 0.4
CCC1Cc2c(nc(N)c3c(N)nc(N(CC)CC)c(C#N)c23)O1 (stereo not drawn)
    -3.0, .

Further records follow:
The line under a structure holds: Sa helicase inh, MgrA-DNA mod
NNc1ncnc2cc(-c3ccc(Br)cc3)sc12
    4.0, .
CCn1c(CCNC(=O)C2(c3ccc(Cl)cc3)CCC2)nnc1SC
    -3.0, 0.5
COc1ccc(-c2nn[nH]n2)cc1
    -6.0, 0.4
O=S(=O)(NCC1CCN(S(=O)(=O)c2ccccc2)CC1)c1cccc2nonc12
    ., -1.1
Clc1cc(NCc2ccc3c(c2)OCO3)ccc1N1CCOCC1
    -1.0, -3.3
CC(C)N(CCC#N)C(=O)c1c[nH]c2ccccc2c1=O
    -2.0, 1.1
N=c1oc2c(Cl)cc(Cl)cc2cc1C(=O)Nc1ccc(F)cc1
    14.0, .
CC1CCc2sc(NC(=O)c3cccs3)c(C#N)c2C1 (stereo not drawn)
    8.0, .
COc1ccc(Sc2ccc(OC)cc2C(=O)O)c(C(=O)O)c1
    23.0, .
O=C(Cn1ncc2ccccc21)NCC1CCCO1 (stereo not drawn)
    5.0, .
CCOc1ccc(NC(=O)OC(C)(C)C)cc1
    4.0, 0.6
O=C(Cn1cc2c(n1)CCCC2)NCCc1ccccc1
    -5.0, .
CCOC(=O)N1CCN(C2=Nc3cccc4cccc2c34)CC1
    -64.0, .
